RGS16-Gao: regulators of human RGS16-Galphao interaction; AID 1441; 0.38% of 220,000 active; binding response (% of control), % at 10 µM; O15492+P09471; bead-based flow cytometry RGS16-Galphao binding, fluorescence; actives lie on both sides;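 active = below 25% or above 175%, edge rows of some plates excepted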;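 also: Galphao activated by GDP with aluminum fluoride before binding; 100% = wells without compound and 0% = beads without RGS; some results beyond the cut were filed as inactive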
INS promoter inh: TRM-6 insulin promoter activity inhibition; TRM-6 cells (human fetal islet line), insulin promoter-eGFP reporter, imaging; reporter expression induced with tamoxifen; inhibition, % at 2 µM; 0.9% of 130,000 active;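 active = inhibition above the mean plus 3 SD, with well images judged a real hit on visual review, cut at about 60% in these data, passing the limit was not always enough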
HSV augment: HSV replication enhancement | HSV replication augmentation in cells, fold increase | maximum fold increase | 0.005% of 220,000 active;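 active = peak rise of 1.5-fold or more in the series; tested in PC3 cells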;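 also: first round at 10 µM; read as green reporter fluorescence; hits show the peak of a series up to 25 µM; 1 = signal of infected wells without compound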
GALR2 agonist: activates the human galanin receptor 2. 0.48% of 140,000 active. GALR2-expressing cells, agonist activation read-out. O43603. activation, %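 (tested at 5 µM)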. AID 803;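 active = above mean plus 3 SD of all compounds, about 5% in these data, not always enough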;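 also: 0% = vehicle buffer wells and 100% = reference agonist at full effect; tested in CHO reporter cells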
PKD1 kinase inh: blocks activity of human protein kinase D1. inhibition, %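 (about 10 µM by stock and volumes)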. 0.056% of 200,000 active. Q15139. PKD1 kinase fluorescence polarization assay;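 active = inhibition of 50% or more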;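 also: controls were vehicle for no effect and a reference inhibitor for full effect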
Target sequence (Q15139 whole entry, looked up): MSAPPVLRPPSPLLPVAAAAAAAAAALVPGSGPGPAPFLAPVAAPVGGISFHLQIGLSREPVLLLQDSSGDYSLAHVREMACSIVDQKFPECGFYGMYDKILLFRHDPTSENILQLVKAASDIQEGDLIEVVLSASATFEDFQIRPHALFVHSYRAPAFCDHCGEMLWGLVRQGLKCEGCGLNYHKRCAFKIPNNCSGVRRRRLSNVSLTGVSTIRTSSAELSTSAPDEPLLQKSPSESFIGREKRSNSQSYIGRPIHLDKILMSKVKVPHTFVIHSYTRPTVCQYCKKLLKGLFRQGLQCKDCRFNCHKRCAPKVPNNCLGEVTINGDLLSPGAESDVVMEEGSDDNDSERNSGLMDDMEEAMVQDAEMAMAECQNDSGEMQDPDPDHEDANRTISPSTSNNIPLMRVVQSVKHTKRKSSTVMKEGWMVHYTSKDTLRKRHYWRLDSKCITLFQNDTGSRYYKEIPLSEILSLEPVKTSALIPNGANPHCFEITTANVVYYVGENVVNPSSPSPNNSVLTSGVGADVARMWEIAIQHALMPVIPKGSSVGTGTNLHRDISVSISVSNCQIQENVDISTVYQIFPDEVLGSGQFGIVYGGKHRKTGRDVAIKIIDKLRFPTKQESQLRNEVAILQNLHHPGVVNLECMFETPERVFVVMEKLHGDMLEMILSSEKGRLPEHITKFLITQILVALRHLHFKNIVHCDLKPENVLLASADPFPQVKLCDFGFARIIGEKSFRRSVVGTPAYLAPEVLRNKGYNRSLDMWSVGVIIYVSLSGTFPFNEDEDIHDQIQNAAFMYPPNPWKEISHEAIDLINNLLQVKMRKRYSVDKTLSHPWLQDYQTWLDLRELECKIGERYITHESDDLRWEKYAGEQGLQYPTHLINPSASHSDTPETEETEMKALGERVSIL
INS promoter inh cell count: further read-out of INS promoter inh, marked with its call; normalized cell count, %; measured here: cell count, toxicity; reference of the scale not given here;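 cells exposed to compound for 48 h; stained nuclei by imaging scaled within each plate; lower means fewer cells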
HSV augment primary fold: also measured in HSV augment; calls as there; fold increase; compound at 10 µM; measured here: primary screen fold increase 10 uM; tested in PC3 cells;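 GFP signal in the first replicate; 1 = infected wells without compound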
An asterisk follows results filed as active; i = inactive; . = no result given.

Below each SMILES – RGS16-Gao	INS promoter inh	INS promoter inh cell count	HSV augment	HSV augment primary fold	GALR2 agonist	PKD1 kinase inh
> O=C1CC(c2ccccc2)C(=O)N1c1cccc(O)c1 (stereo unspecified)
 : 98	-206	98	i	1.1	-1.3	-10
> Cc1nc(NC(=O)CSc2nnc3ccccn23)c(Cl)cc1Cl
 : 95	-37	280	i	0.94	-1.3	-3
> O=C1N/C(=N\c2ccccn2)SC1Cc1ccc(Cl)cc1 (stereo unspecified)
 : 98	-450	74	i	0.97	.	-5
> O=C(C1CCN(S(=O)(=O)c2ccc(Br)s2)CC1)N1CCN(C2CCCCC2)CC1
 : 103	-26	106	i	0.97	.	-5
> CCC(C)(C(=O)NC1CCCCC1)N(C(=O)c1cnccn1)c1c(C)n(C)n(-c2ccccc2)c1=O (stereo unspecified)
 : 92	-21	126	i	0.91	-0.8	5
> COc1ccc(/C=N/NC(=O)c2ccc(COc3cccc4cccnc34)cc2)cc1OC
 : 97	.	.	i	0.77	.	4
> CC(C)Cn1c(N)c(C(=O)COC(=O)c2ccc3ccccc3n2)c(=O)n(C)c1=O
 : 110	.	.	i	0.98	-1.7	4
> O=C(CSc1ccc(-c2ccccc2)nn1)NCC1CCCO1 (stereo unspecified)
 : 106	.	.	i	1.2	.	-5
> Cc1ccc2cc(C3CC(c4ccco4)=NN3C(=O)CCC(=O)O)c(Cl)nc2c1 (stereo unspecified)
 : 36	.	.	i	1.1	-0.1	-9
> COC(=O)C(CSCc1ccccc1)NC(=O)CSc1nc(N)cc(=O)[nH]1 (stereo unspecified)
 : 93	.	.	i	1.2	.	-4
> COc1cccc(N2CCN(C3C4CC5CC(C4)CC3C5)CC2)c1 (stereo unspecified)
 : 102	-29	145	i	1	-1.4	-6
> COc1ccc(NC(C)=O)cc1NC(C)C(=O)Nc1ccccc1F (stereo unspecified)
 : 6	.	.	i	0.92	-0.4	-4
> c1cncc(-c2nc(NCc3ccc4c(c3)OCO4)c3ccccc3n2)c1
 : 100	.	.	i	0.9	.	.
> CCOC(=O)C1=C(O)/C(=C\c2cc(C)n(-c3ccccc3F)c2C)N=C1C
 : 105	.	.	i	1.2	.	-3
> CC(C)(C)n1ncc(Oc2ccc(Oc3cnn(C(C)(C)C)c(=O)c3Cl)cc2)c(Cl)c1=O
 : .	55	107	.	.	-1.8	-5
> COc1ccccc1CN1C[C@@H]2C[C@@H](C3=Cc4cc(Cl)ccc4OC3)N3CCC[C@@]23C1=O
 : 98	.	.	i	1	.	-4
> CCCSCC(=O)Nc1ncc2c(n1)-c1ccccc1CC2
 : 99	7	48	i	0.92	.	-9
> CCC(C)NCCCOc1ccc(C)cc1OC (stereo unspecified)
 : 104	.	.	i	1.1	.	-8
> CNC(=S)N(CCc1c(C)[nH]c2ccc(C)cc12)Cc1ccc(OC)c(OC)c1
 : .	33	136	.	.	-0.8	-5
> COc1cc(OC)cc(-c2nc(-c3ccc(Br)cc3)no2)c1
 : 51	.	.	i	0.82	0.0	-7

A different layout for some results above.
smiles	RGS16-Gao	INS promoter inh	INS promoter inh cell count	HSV augment	HSV augment primary fold	GALR2 agonist	PKD1 kinase inh
COc1ccccc1CN1C[C@@H]2C[C@@H](C3=Cc4cc(Cl)ccc4OC3)N3CCC[C@@]23C1=O	98	.	.	i	1	.	-4
COc1ccc(NC(C)=O)cc1NC(C)C(=O)Nc1ccccc1F (stereo unspecified)	6	.	.	i	0.92	-0.4	-4
COc1cc(OC)cc(-c2nc(-c3ccc(Br)cc3)no2)c1	51	.	.	i	0.82	0.0	-7

Next records follow.
Below each SMILES – RGS16-Gao	INS promoter inh	INS promoter inh cell count	HSV augment	HSV augment primary fold	GALR2 agonist	PKD1 kinase inh
> O=C(CSCCc1ccccn1)Nc1ccc(Br)cn1
 : 99	-22	109	i	0.93	-2.8	-5
> COc1cccc(C2CC(=O)Nc3cc4c(cc32)OCCO4)c1OC(C)C (stereo unspecified)
 : 103	29	78	i	0.99	-0.7	4
> O=C(CCNS(=O)(=O)c1cccs1)Nc1nccs1
 : 75	.	.	i	0.87	-2.0	-5
> O=C(O)c1ccccc1C(=O)NNc1ccc(F)cc1
 : 100	-28	79	i	1	-3.1	-9
> COc1ccc(N2Cc3cccc(C(=O)NC(C)CCc4ccco4)c3C2=O)cc1 (stereo unspecified)
 : 101	.	.	i	1	0.1	-2
> CCC(/C=N/NC(=O)c1ccccc1F)CC
 : 100	15	116	i	0.82	.	-2
> Cc1ccc(NC(=O)c2oc3ccccc3c2NC(=O)c2ccc3c(c2)OCO3)cc1
 : 101	12	155	i	0.97	-1.8	7
> Cc1cccc(OCC(=O)N=Nc2c(O)[nH]c3ccc([N+](=O)[O-])cc23)c1
 : 95	.	.	i	0.86	.	.
> C=CCn1cc(F)c(=O)n(CC=C)c1=O
 : 99	.	.	i	0.97	.	3
> Cc1nnc(NC(=O)c2c(F)cccc2F)s1
 : 102	.	.	i	0.85	-1.7	0
> O=C(NCCO[N+](=O)[O-])c1cccnc1
 : 96	.	.	i	0.68	.	.
> O=C(NCCc1cccc(Cl)c1)c1cccc([N+](=O)[O-])c1
 : 94	0	96	i	0.83	-1.2	-2
> Cc1cc(C(=O)CSc2cccc[n+]2[O-])c(C)n1-c1ccccc1
 : 90	32	99	i	0.99	.	0
> O=C(CCN1C(=O)c2ccccc2C1=O)Nc1sc2c(c1C(=O)NCc1ccco1)CCCC2
 : 90	-31	79	i	0.92	-2.0	0
> CCCCN(CC)Cc1ccc(CNC(=O)Nc2ccc(F)cc2)o1
 : 86	-74	163	i	0.94	-0.8	3
> Cc1ccc(NC(=O)C2CC(=O)Nc3ncnn32)cc1Cl (stereo unspecified)
 : 95	.	.	i	0.83	.	.
> COC(=O)C1=C(C)N(c2cccc(C)c2)C(=O)/C1=C\c1cccs1
 : 87	.	.	i	1	-1.7	9
> COc1ccccc1N1CCN(C(=O)c2oc3cc(C)c(C)cc3c2C)CC1
 : 96	59	118	i	0.89	1.1	1
> CCCCCCCc1c(O)nc(SCC(=O)O)[nH]c1=O
 : 100	.	.	i	1	.	.
> COC(=O)C(CCSC)NC(=O)Cn1ncc2c(=O)oc3ccccc3c21 (stereo unspecified)
 : 105	.	.	i	0.77	-1.6	-16

Six compounds from above, ordered by the value under PKD1 kinase inh, highest first:
SMILES	PKD1 kinase inh
COc1ccc(/C=N/NC(=O)c2ccc(COc3cccc4cccnc34)cc2)cc1OC	4
COc1ccccc1N1CCN(C(=O)c2oc3cc(C)c(C)cc3c2C)CC1	1
COc1ccc(N2Cc3cccc(C(=O)NC(C)CCc4ccco4)c3C2=O)cc1 (stereo unspecified)	-2
Cc1nc(NC(=O)CSc2nnc3ccccn23)c(Cl)cc1Cl	-3
CCC(C)NCCCOc1ccc(C)cc1OC (stereo unspecified)	-8
COC(=O)C(CCSC)NC(=O)Cn1ncc2c(=O)oc3ccccc3c21 (stereo unspecified)	-16

Later entries:
Below each SMILES – RGS16-Gao	INS promoter inh	INS promoter inh cell count	HSV augment	HSV augment primary fold	GALR2 agonist	PKD1 kinase inh
> Cc1ccc(OCC(=O)N/N=C/c2ccncc2)cc1
 : 101	12	156	.	.	-2.1	-9
> COc1ccc(/C=N/N2CCOCC2)cc1COc1ccc(F)cc1
 : 111	.	.	i	0.88	.	-2
> Cc1c(C(=O)c2no[n+]([O-])c2C(=O)c2cnn(C)c2C)cnn1C
 : 105	.	.	i	0.91	-0.4	-3
> CCS(=O)(=O)Nc1ccc(C2=NN(S(=O)(=O)c3ccc(F)cc3)C(c3ccco3)C2)cc1 (stereo unspecified)
 : 112	35	66	i	0.89	-1.4	0
> CC(=O)c1ccc(NC(=O)c2cc(Cl)sc2Cl)cc1
 : 103	.	.	i	1	0.2	-1
> CCN(CC)CCn1c(NCc2cccc(OC)c2OC)nc2ccccc21
 : 102	14	162	i	1	-1.8	-1
> Nc1ccccc1SCc1cc([N+](=O)[O-])cc2c1OCOC2
 : 95	-53	108	i	1	-0.9	-5
> COc1ccc(NC(=S)NC2CC3CCCC(C2)N3C2CC2)cc1 (stereo unspecified)
 : 105	.	.	i	0.94	.	0
> Cc1ccc(NC(=O)CCC(=O)NNC(=O)NC23CC4CC(CC(C4)C2)C3)cc1C
 : 101	.	.	i	0.79	.	-1
> CCCSc1nc(C)c(-c2csc(C(C#N)=C3CCCC3)n2)cc1C#N
 : 83	.	.	i	0.94	-0.3	12
> CC(=O)/C(N=Nc1ccc2c(c1)OCCO2)=C(\C)O
 : 109	9	133	i	0.92	.	3
> Cc1ccc2c(c1)N(CC(=O)NCC1CCCO1)C(=O)C(C)O2 (stereo unspecified)
 : 97	5	116	i	0.99	-1.4	-1
> Cc1c(Cl)cccc1-n1nnnc1-c1cccs1
 : 98	3	102	i	0.88	-0.5	-15
> C/C(=N/N1CCN(Cc2cccc3ccccc23)CC1)c1ccco1
 : 104	.	.	i	1.1	.	.
> Cc1cc(C(=O)c2ccccc2)nc2ccccc12
 : 101	-5	179	i	0.96	-0.2	4
> CCOC(=O)c1c(C)[nH]c(O)c1C=Nc1ccccc1
 : 109	16	85	i	1.3	-0.8	31
> CC(=O)c1cccc(NC(=O)COC(=O)CCc2ccc(S(=O)(=O)N3CCOCC3)cc2)c1
 : 94	.	.	i	0.96	.	-3
> COc1ccc(CCNC(=O)COc2ccc(-c3ccc(C)cc3)cc2)cc1OC
 : 65	-23	88	i	0.94	-0.9	-1
> CCc1ccccc1NC(=O)Nc1cccs1
 : 117	.	.	i	1.1	.	-5
> CCOc1cccc(C(=O)Nc2cccc(NC(=O)c3ccco3)c2)c1
 : 101	20	123	i	0.95	.	-2

Arranged by SMILES length (rising): part of the list above
Below each SMILES – RGS16-Gao	INS promoter inh	INS promoter inh cell count	HSV augment	HSV augment primary fold	GALR2 agonist	PKD1 kinase inh
> Nc1ccccc1SCc1cc([N+](=O)[O-])cc2c1OCOC2
 : 95	-53	108	i	1	-0.9	-5
> CCOc1cccc(C(=O)Nc2cccc(NC(=O)c3ccco3)c2)c1
 : 101	20	123	i	0.95	.	-2
> Cc1ccc(NC(=O)CCC(=O)NNC(=O)NC23CC4CC(CC(C4)C2)C3)cc1C
 : 101	.	.	i	0.79	.	-1

Continuation.
Below each SMILES – RGS16-Gao	INS promoter inh	INS promoter inh cell count	HSV augment	HSV augment primary fold	GALR2 agonist	PKD1 kinase inh
> COc1ccc(Cc2nc3ccccc3n2CC(=O)N/N=C/c2ccc(O)cc2)cc1OC
 : 120	.	.	i	1.1	-0.2	7
> Cc1ccnc(N2C(=O)c3ccccc3C2Nc2ccc3c(c2)OCCO3)c1 (stereo unspecified)
 : 103	.	.	i	0.97	-3.1	-6
> O=C(CCC1CCCC1)Nc1ccccc1-c1ccccc1
 : 107	-20	105	i	1.1	0.7	-6
> CCSc1nnc(NC(=O)CSc2nc(C)cc(C)n2)s1
 : 102	.	.	i	0.83	-1.8	5
> Cc1ccc(/C=N/NC(=O)Cc2cccs2)o1
 : 106	.	.	i	1.1	-1.6	-3
> Cc1cc(=O)oc2cc(OC(C)C(=O)N3CCCc4ccccc43)ccc12 (stereo unspecified)
 : 104	54	117	i	0.88	-2.5	-3
> Cc1ccc2nc(-c3ccccn3)cc(C(=O)N3CCN(c4ncccn4)CC3)c2c1
 : 97	-7	83	i	0.96	-3.3	-15
> c1ccc(Cc2noc(CN3CCCN(C4Cc5ccccc5C4)CC3)n2)cc1
 : 116	.	.	i	1	.	-2
> CCOC(=O)c1cc2oc(C)cc2n1CC(=O)OC1CCCCC1
 : 86	0	145	i	0.93	-2.3	-2
> CC(C(=O)NC(=O)NC1CCCCC1)N1CCN(c2ccccn2)CC1 (stereo unspecified)
 : 102	-14	54	i	0.82	-0.9	-6
> O=C(C1CCCCC1)N1CCC(CO)(Cc2ccccc2Cl)CC1
 : 108	-57	104	i	0.88	.	0
> O=C(COC(=O)/C=C/C(=O)N1CCN(c2ccccc2)CC1)NCc1ccc(F)cc1
 : 114	-76	56	i	1.1	.	-10
> CCC(C)Sc1nnc(CNC(=O)C23CC4CC(CC(C4)C2)C3)n1C1CCCCC1 (stereo unspecified)
 : 108	.	.	.	.	-0.2	7
> O=C(CSc1nc2ccc([N+](=O)[O-])cc2[nH]1)c1ccc2ccccc2c1
 : 106	50	97	i	1.2	-3.2	-9
> Cc1nc2nc(C)c(CCC(=O)O)c(C)n2n1
 : 96	-29	106	i	0.75	-1.7	-5
> O=C(CCC1CCCN(Cc2ccc(O)c(Cl)c2)C1)NCc1ccccc1F (stereo unspecified)
 : 106	.	.	i	0.8	.	-3
> CC(=O)Nc1cccc(N/C=C(\C=O)c2nc3ccccc3o2)c1
 : 101	-58	104	i	0.97	0.6	4
> CC1(C)CC(=O)C=C(NCCc2c[nH]c3ccccc23)C1
 : 101	.	.	i	1.1	.	.
> O=C(CSc1nnc(CCc2ccccc2)n1-c1ccc(Cl)cc1)NCc1ccccc1
 : 104	14	113	.	.	1.6	-5
> COC(=O)C1=CN(CCCN2CCCC2=O)C=C(C(=O)OC)C1c1ccccc1C(F)(F)F
 : 99	-38	95	i	0.84	20*	-13
